VACV mCherry inh: vaccinia inhibition (mCherry reporter) | Potency, µM (highest dose often 36.5 µM), inactives show at the top dose activity change, negative = inhibition, usual class: inhibitors | 310,000 tested, 0.63% active | Vaccinia virus mCherry reporter infection, fluorescence; about a quarter of the inactives have no number | AID 720579; active = well fitted inhibition curve with a large enough effect; inconclusive = small, poorly fitted or top-dose-only effect; inactive = no such curve, though single readings can be large or run the other way; tested in A549 cells; also: nearly all actives have a fitted effect of over 35% in size; inactives centre near -10
Vaccinia Venus: vaccinia inhibition (Venus reporter); Vaccinia virus Venus reporter expression, fluorescence; Potency, µM (series often up to 36.5 µM), without a hit: at the highest dose activity change, negative = inhibition, usual class: inhibitors; 330,000 tested, 0.46% active; active means well fitted inhibition curve with a large enough effect; inconclusive means small, poorly fitted or top-dose-only effect; inactive means no such curve, though single readings can be large or run the other way; tested in A549 cells; also: nearly all actives have a fitted effect of over 30% in size; inactives centre near -10
Active calls of the source: *; i = inactive; ? = inconclusive; · = not tested or not shown; [ ] = remark or other dose. % is scaled to controls: 0 for no effect and ±100 for the full control effect; potency is read from the fitted curve at half-maximal effect. This is a random part of the collection, and some 0.82% of all compounds hit somewhere here.

SMILES | VACV mCherry inh | Vaccinia Venus
Nc1c(C(=O)Nc2ccc(OC(F)(F)F)cc2)sc2nc3c(cc12)N1CCC3CC1 | ? | ?
O=C(O)CN=C(Nc1cc(Cl)cc(Cl)c1)NC(c1ccccc1)c1ccccc1 | 30%[activator] | 2%
COC(=O)C1=C(C)N(Cc2ccccc2)C(=NCc2cc(OC)c(OC)c(OC)c2)N[C@H]1c1ccccc1 | -1% | -19%
Clc1ccc(CNCC2CCCO2)cc1 (centres undefined) | -3% | -5%
CCSc1nc(C)c(CCOc2cccc(C)c2)c(=O)[nH]1 | -6% | -3%
CCOC(=O)C1CCCN(c2c(NCCc3ccc(S(N)(=O)=O)cc3)c(=O)c2=O)C1 (centres undefined) | -19% | -4%
N#Cc1ccc(Oc2ccc(-c3cnc4ccccc4n3)cc2)cc1C#N | i | -8%
CC(C)N(CCn1cnc2c([nH]c3ccccc32)c1=O)C(C)C | 1% | 4%
Cc1cccc(C)c1Nc1nnc(SCC(=O)NC(=O)c2cccn2C)s1 | -16% | ?
Cc1ccc(Cc2nc3ccccc3nc2SCC(=O)Nc2cccc(C(F)(F)F)c2)cc1 | -5% | 3%
CN(Cc1ccc(Br)cc1)C(=O)CCN1C(=O)c2cccc([N+](=O)[O-])c2C1=O | -19% | -2%
COc1ccccc1CNC(=O)c1ccc(CS(=O)(=O)c2ccccc2C)o1 | -10% | -4%
c1cc(CNC23CC4CC(CC(C4)C2)C3)ccn1 | -4% | 2%
Cc1ccnc(NC(=O)C2CCCN(c3ncnc4c3nc3n4CCCCC3)C2)c1 (centres undefined) | i | -20%
Cc1cccc(-c2noc(Cc3ccc(Cl)cc3)n2)c1 | · | -12%
CCN(CC)c1ccc(NC(=O)CSc2nc(C)cc(=O)[nH]2)cc1 | i | -9%
O=C(Nc1ccc(NC(=O)C2CC2)cc1)c1cccs1 | -13% | -4%
Cc1noc(C)c1C(=O)N(C)C[C@@H]1OCc2ccccc2-c2c(n(C)c3ccccc23)C(=O)N([C@H](C)CO)C[C@H]1C | -9% | -15%
C=CC[C@H](CC(=O)N[C@H](CO)Cc1ccccc1)C(=O)N[C@H](COC(=O)[C@@H](CC=C)Cc1ccc(F)cc1)Cc1c[nH]c2ccccc12 | -6% | -28%
CN(C(=O)COC(=O)COc1ccc2c(c1)CCC2)c1c(N)n(Cc2ccccc2)c(=O)[nH]c1=O | -13% | 7%

Given in markdown: entries from further up.
| compound | VACV mCherry inh | Vaccinia Venus |
| --- | --- | --- |
| CCOC(=O)C1CCCN(c2c(NCCc3ccc(S(N)(=O)=O)cc3)c(=O)c2=O)C1 (centres undefined) | -19% | -4% |
| N#Cc1ccc(Oc2ccc(-c3cnc4ccccc4n3)cc2)cc1C#N | i | -8% |
| CC(C)N(CCn1cnc2c([nH]c3ccccc32)c1=O)C(C)C | 1% | 4% |

(cont.)
SMILES | VACV mCherry inh | Vaccinia Venus
CC1(C(=O)NS(=O)(=O)c2ccc(C#N)cc2)CCN1C(=O)CCC1CCCC1 (centres undefined) | -6% | 3%
COc1cccc(C2CCN(CC(=O)Nc3cc(Cl)ccc3OC)CC2O)c1 (centres undefined) | -28% | -19%
CC(Sc1ccccc1)C(=O)N1CCN(S(=O)(=O)c2ccccc2F)CC1 (centres undefined) | i | -7%
O=C(COC(=O)c1ccccc1O)NCC1COc2ccccc2O1 (centres undefined) | 0% | -9%
COc1cc(CO)cc(Br)c1OCC(=O)O | 7% | 6%
CCCc1nc2oc3c(NCc4ccccn4)ncnc3c2c2c1COC(C)(C)C2 | -8% | 1%
CCc1ccc(NC(=O)NCC2CCN(c3ccc(OC)cc3)C2)cc1 (centres undefined) | -12% | -6%
Cc1cc(C)cc(C(=O)N2CCN=C2SCc2ccc([N+](=O)[O-])cc2)c1 | -4% | -1%
CCOc1ccc(/C=N/NC(=O)c2ccoc2C)cc1OC | i | -12%
CC[C@@H](C)[C@H](NC(=O)Cc1c(C)c2c(cc(C)c3c(C)coc32)oc1=O)C(=O)O | -4% | -27%
CCNC(=O)OCC12CC3CC(CC(C3)C1)C2 | -10% | -14%
O=C(CSc1nc2c(cnn2-c2ccc(F)cc2)c(=O)[nH]1)N1CCCc2ccccc21 | -1% | -19%
COC(=O)C1=C(C)N(c2ccc(OC)c(OC)c2)C(=O)C1 | i | -7%
CCc1sc2nc(SCC(=O)Nc3cc(C)on3)n(-c3cccc(OC)c3)c(=O)c2c1C | -6% | -26%
CCCCN(C(=O)CN1C(=O)C2CCCCC2C1=O)c1c(N)n(CCCC)c(=O)[nH]c1=O (centres undefined) | -5% | 5%
Cc1ccc(S(=O)(=O)N2CCn3cccc3C2C)cc1 (centres undefined) | -1% | -13%
COC(=O)C1CCCCN1Cc1ccc2c(c1)CN(C(=O)c1ccc(C)s1)CCO2 (centres undefined) | -5% | 4%
O=C1CC(c2ccccc2Br)c2c(c3ccccc3oc2=O)O1 (centres undefined) | -13% | -10%
CCOC1=C2[C@@H](CN(S(=O)(=O)c3ccc(C)cc3)[C@H]2c2ccccc2F)[C@H]2C(=O)N(CC)C(=O)[C@H]2C1 | 9% | -8%
COC(=O)c1c(C)sc(-c2c(-c3cccc(Cl)c3)[nH]c3c2c(=O)[nH]c(=O)n3C)c1O | -4% | 61%[activator]

Part of the list above in order of molecular weight, descending:
SMILES | VACV mCherry inh | Vaccinia Venus
CCOC1=C2[C@@H](CN(S(=O)(=O)c3ccc(C)cc3)[C@H]2c2ccccc2F)[C@H]2C(=O)N(CC)C(=O)[C@H]2C1 | 9% | -8%
CC1(C(=O)NS(=O)(=O)c2ccc(C#N)cc2)CCN1C(=O)CCC1CCCC1 (centres undefined) | -6% | 3%
Cc1ccc(S(=O)(=O)N2CCn3cccc3C2C)cc1 (centres undefined) | -1% | -13%

Additional compounds follow:
SMILES | VACV mCherry inh | Vaccinia Venus
COc1cc(/C=C/c2onc(C)c2[N+](=O)[O-])cc(OC)c1OC | i | -4%
CC(C)CN(CC(C)C)C(=O)CN1C(=O)NC2(CCCc3ccccc32)C1=O (centres undefined) | 0% | -5%
CC1(C)CN2C(c3ccc(Cl)cc3)N2C1 (centres undefined) | -9% | -3%
COC(=O)c1sc(N2C(=O)c3oc4ccc(C)cc4c(=O)c3C2c2ccc(OC)cc2)nc1C (centres undefined) | -13% | -16%
CCOC(=O)NC(=S)Nc1cccc(NC(=S)NC(=O)OCC)c1 | i | -8%
COc1ccc(Nc2cc(C)c3c(O)cccc3n2)cc1 | ? | -17%
N#CCC(=N)N1CCN(c2ccc(F)cc2)CC1 | ? | -6%
CN(C(=O)COC(=O)c1ccc(F)c(S(=O)(=O)N2CCOCC2)c1)C1CCS(=O)(=O)C1 (centres undefined) | -10% | -2%
OC[C@@H]1CN(Cc2ccccc2)C[C@H](n2cnc3c(N4CCN(c5ccccc5)CC4)ncnc32)O1 | -7% | -16%
O=C(NCC1CCCO1)c1ccc(-c2ccccc2Cl)o1 (centres undefined) | -15% | -11%
Cc1ccc(CNC(=O)Cn2cnc(C(=O)Nc3ccc(C)c(C)c3)n2)o1 | -1% | -13%
Cc1nc(N2CCCCC2)sc1C(=O)c1cccc([N+](=O)[O-])c1 | -26% | -21%
CC(=O)N1C(C)c2ccccc2C(C)(C)CC12CCCCC2 (centres undefined) | -23% | -16%
CC(=O)Nc1ccccc1-c1ccc(C)o1 | · | -7%
CCn1c2c(c(=O)n3ncc(C(=O)Nc4cc(Cl)ccc4C)c13)CN(Cc1ccc(OC)cc1)CC2 | -20% | -17%
Cc1c(C(=O)N(C)C)sc(NC(=O)c2cc([N+](=O)[O-])cc([N+](=O)[O-])c2)c1C#N | -19% | -11%
CCOc1ccc(S(=O)(=O)NC(C)C(=O)NCc2ccncc2)cc1 (centres undefined) | -5% | -1%
Cc1ccccc1-c1nnn(CC(=O)NC(=O)NC2CCCC2)n1 | i | -10%
Cc1ccccc1-n1c(SCC(=O)NCc2cccs2)nnc1-c1ccncc1 | -4% | -11%
Cc1noc(C)c1-c1cc(N(C)C)ncn1 | -6% | -3%

Single records, from the list above.
Shown for Cc1ccccc1-c1nnn(CC(=O)NC(=O)NC2CCCC2)n1 = VACV mCherry inh: i; Vaccinia Venus: -10%
Shown for COc1cc(/C=C/c2onc(C)c2[N+](=O)[O-])cc(OC)c1OC = VACV mCherry inh: i; Vaccinia Venus: -4%

(further entries)
SMILES | VACV mCherry inh | Vaccinia Venus
Cc1c(C(C)C)c(=O)n(-c2ccc(S(=O)(=O)NC(C)C)cc2)n1C | -9% | -6%
O=c1cnn(Cc2ccc(F)cc2)c2ccccc12 | -19% | -4%
COc1ccccc1CN1CC(C(=O)NCC2(O)CCCCC2)CCC1=O (centres undefined) | i | -3%
COc1ccc(S(=O)(=O)Nc2ccc(NC(C)=O)cc2)cc1Cl | i | -8%
CCOc1ccc(CCNC(=O)COC(=O)c2nn(C)c(=O)c3ccccc23)cc1OCC | -10% | -9%
COc1ccc(-c2noc(C(=O)NCc3ccc(F)cc3)n2)cc1OC | i | -18%
Cc1cc(NS(=O)(=O)c2ccc(NC(=S)NC(=O)c3cccc(S(=O)(=O)N(C)C)c3)cc2)no1 | i | -12%
COc1ccc(C(=O)NCC(=O)OCC(=O)N2CCCc3ccccc32)cc1 | 0% | -5%
Cc1ccc(-c2ccc(=O)n(CC(=O)Nc3ccc(F)c(Cl)c3)n2)cc1C | -14% | -11%
O=C(NCc1ccc(F)cc1)C1CCN(C(=O)c2cnn(-c3ccccc3)c2-n2cccc2)CC1 | -6% | -3%
CCOC(=O)c1cccc(NC(=O)COc2ccc([N+](=O)[O-])cc2)c1 | -17% | -13%
O=C(NC1CCCC1)c1ncn[nH]1 | i | -15%
O=c1c2ccccc2nnn1COc1ccc(F)cc1Cl | -2% | -2%
O=C(NCCNc1ccc([N+](=O)[O-])cc1)c1cccs1 | -2% | 4%
c1ccc(-c2nn3c(Cn4nnc5ccccc54)nnc3s2)cc1 | -15% | -9%
Cc1c(C#N)c2ccccc2n1CC(=O)N1CCCc2ccccc21 | · | ?
O=C1c2ccccc2C(=O)N1CC1c2ccccc2CCN1C(=O)C1CCCCC1 (centres undefined) | -13% | -1%
N#Cc1c(NC(=O)CSc2ncnc3c2cnn3-c2ccccc2Cl)sc2c1CCCC2 | -12% | -6%
O=[N+]([O-])c1ccc(C=C2c3ccccc3-c3ccccc32)cc1 | -15% | -7%
CCCCN(C(=N)N1CCCCC1)c1nc(C)c([N+](=O)[O-])c(=O)[nH]1 | -6% | -4%
O=C(Nc1nc2ccc(Cl)cc2s1)C1CCCO1 (centres undefined) | · | -21%
Cc1cc(OC(=O)c2ccc(S(=O)(=O)N(C)C)cc2)cc(=O)o1 | -8% | ?
Cn1nnnc1SCC(=O)Nc1cc(C(C)(C)C)nn1-c1ccccc1 | 2% | -5%
Cc1ccc(NS(=O)(=O)c2cc(-c3cnc(C4CC4)o3)ccc2C)cc1Cl | -17% | -23%
Cc1ccccc1CN(C)C(C)C(=O)NCc1ccccc1 (centres undefined) | -5% | -3%
COCCn1c(C)cc(O)c(C(c2ccccc2)N2CCN(C)CC2)c1=O (centres undefined) | -14% | 0%
CCOC(=O)N1CCN(C(=O)C2CCN(Cc3ccc(O)c(OCC)c3)CC2)CC1 | -23% | -7%
COc1ccc2c(=O)cc(-c3ccccc3)n(C)c2c1 | -38% | -26%
O=C(O)C1=C[C@H](c2ccc(F)cc2)C[C@H](OCc2ccc(CO)cc2)O1 | i | -12%
COc1ccc(-c2n[nH]c(=S)o2)c(OC)c1 | · | -7%
Cc1ccn2c(=O)nc(SCC(=O)NCc3ccc(F)cc3)nc2c1 | -10% | -15%
CCc1ccc(NC(=O)c2ccc3c(c2)nnn3CC)cc1 | -1% | -5%
Cc1cccc(NS(=O)(=O)c2ccc3oc(=O)c4ncn(C)c4c3c2)c1C | -16% | -7%
CC1CCC/C(=N\NS(=O)(=O)c2ccccc2)C1 (centres undefined) | -13% | -5%
CC(=O)O[C@H]1C(=O)[C@@]2(C)C([C@H](OC(=O)c3ccccc3)[C@]3(O)C[C@H](OC(=O)[C@H](O)[C@@H](NC(=O)c4ccccc4)c4ccccc4)C(C)=C1C3(C)C)[C@]1(OC(C)=O)CO[C@@H]1C[C@H]2O (some centres undefined) | ? | -23%
C/C(=N\Nc1ccc(C(F)(F)F)cc1[N+](=O)[O-])C1CC1 | -12% | -6%
Cc1ccc(NC(=O)c2cncc(Br)c2)cc1S(=O)(=O)N(C)C | -21% | -14%
COc1ccc(Cl)cc1/C=C1/C(=O)ON=C1C | -13% | -4%
CN(Cc1ccccc1)C(=S)NC(=O)c1ccccc1 | ? | -9%
COc1cc([N+](=O)[O-])ccc1NC(=O)Cc1ccc(C)cc1 | i | -16%
CCC1=NN(C(=O)COc2ccccc2)C(O)(c2ccc(Br)cc2)C1 (centres undefined) | -18% | -16%

Bioassay records as filed in PubChem BioAssay.
